Source: PubChem BioAssay
CtBP-E1A blk: inhibitors of CtBP/E1A interaction; AlphaScreen GST-E1A/His-CtBP binding, 1536-well; stronger effect = lower value; control for the full effect not named in the record; activity change, % (concentration not given with the values); 0.49% of 340,000 active; in the data active means activity change below about -65%; inconclusive means about -30% to -65%; inactive means above about -30%; also: % is scaled to controls: 0 for no effect and ±100 for the full control effect
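Protein mix (5X: 125 nM each GST-E1A, His-CtBP) was incubated with pinned compound 2 h at 37 deg C in dark, in 50 mM Tris pH 8.0 buffer with 300 mM NaCl. Glutathione donor and nickel acceptor beads followed; AlphaScreen signal read after 1 h.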
PINK1 modulator: changes PINK1 expression; PINK1 immunofluorescence, high-content cytometry, 24 h; Potency, µM (top dose mostly 76.6 µM), inactives show top-dose activation (PINK1 increase), actives largely listed as activators; 0.2% of 410,000 active; AID 624263; active = well fitted activation curve with a large enough effect; inconclusive = small, poorly fitted or top-dose-only effect; inactive = flat fitted curve, though single readings scatter; cell line not stated here;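 also: potency is read from the fitted curve at half-maximal effect; % of control where 0% means no effect; nearly all actives have a fitted effect of over 65% in size; a mitochondrial uncoupler was the plate control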
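A stable cell line was treated with compounds at 5 concentrations for 24 hours, with CCCP as control. PINK1 levels and mitochondrial localization were measured by immunofluorescence with mitochondrial, cell and nuclear markers after fixation, read by laser-scanning cytometry.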
D2 agonist: human D2 receptor agonism in beta-arrestin assay; P14416; activation, % (test concentration not listed); 0.084% of 360,000 active; DiscoveRx PathHunter D2 beta-arrestin, luminescence, 90 min; 100% = 57 uM dopamine signal; AID 624465; in the data active = activation above about 40%; inconclusive = about 15% to 40%; inactive = below about 15%; also: compound concentration not given in the record; the text of the record calls up to 30% inactive
Target sequence (P14416 whole entry, looked up): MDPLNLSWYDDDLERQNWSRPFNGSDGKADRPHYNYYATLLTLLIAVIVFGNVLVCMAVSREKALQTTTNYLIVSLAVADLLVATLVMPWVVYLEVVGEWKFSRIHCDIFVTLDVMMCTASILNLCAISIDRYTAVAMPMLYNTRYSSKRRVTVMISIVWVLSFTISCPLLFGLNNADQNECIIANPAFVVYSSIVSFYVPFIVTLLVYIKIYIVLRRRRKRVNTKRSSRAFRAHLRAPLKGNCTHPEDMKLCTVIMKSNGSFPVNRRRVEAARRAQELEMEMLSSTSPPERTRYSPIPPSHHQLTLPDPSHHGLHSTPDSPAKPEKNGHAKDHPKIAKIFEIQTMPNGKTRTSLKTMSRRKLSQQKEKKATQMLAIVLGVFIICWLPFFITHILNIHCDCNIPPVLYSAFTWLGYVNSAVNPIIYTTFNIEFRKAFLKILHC
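DiscoveRx PathHunter D2 beta-arrestin cells (2,100/well) attached overnight, then compound-stimulated 90 min at 37 C in HBSS/10 mM HEPES/0.1% Tween-20 buffer; beta-galactosidase complementation read by luminescence after 1 h at ambient temperature. Dopamine 57 uM final (EC100) as control.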
TRPML1 ag: human mucolipin-1 channel agonism. 0.12% of 410,000 active. activation, % (test concentration not listed). TRPML1-expressing cells, Ca2+ dye fluorescence, FDSS; host cell line not named in the record; reference of the full effect not given here; in the data active = activation above about 50%; inconclusive = about 30% to 50%; inactive = below about 30%; also: 0% is about no effect; the text of the record puts the active cut at 80%
Target sequence (Q9GZU1 whole entry, looked up): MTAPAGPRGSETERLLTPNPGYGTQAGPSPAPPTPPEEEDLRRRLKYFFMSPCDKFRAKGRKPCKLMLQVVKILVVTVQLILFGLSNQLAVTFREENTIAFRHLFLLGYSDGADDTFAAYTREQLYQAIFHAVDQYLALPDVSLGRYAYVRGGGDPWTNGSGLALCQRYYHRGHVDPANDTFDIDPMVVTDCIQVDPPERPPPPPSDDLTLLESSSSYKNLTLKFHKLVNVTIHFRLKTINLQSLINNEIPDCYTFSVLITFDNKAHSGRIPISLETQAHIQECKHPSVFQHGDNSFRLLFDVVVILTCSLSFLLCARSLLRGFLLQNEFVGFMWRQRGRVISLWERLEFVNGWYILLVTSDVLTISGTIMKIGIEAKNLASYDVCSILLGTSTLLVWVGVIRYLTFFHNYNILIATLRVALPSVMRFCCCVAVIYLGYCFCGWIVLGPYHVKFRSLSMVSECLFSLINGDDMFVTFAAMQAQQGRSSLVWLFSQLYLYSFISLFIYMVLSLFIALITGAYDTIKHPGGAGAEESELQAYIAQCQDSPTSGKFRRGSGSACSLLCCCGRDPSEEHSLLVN
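TRPML1-DL cells, Tet-induced overnight (~16 h, 37 degrees C), loaded 45-90 min at room temperature with Ca8 no-wash calcium dye plus quencher. FDSS fluorescence: 10 s baseline, compound pin-transfer, 110 s agonist read, then EC80 54-4 (4uM final) and 110 s antagonist read.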
TRPML1 inh: blocks the human TRPML1 channel | Q9GZU1 | TRPML1-inducible cells, Ca2+ dye fluorescence, FDSS; stronger effect = lower value; inhibition of EC80 agonist-evoked calcium signal | activity change, negative = inhibition, % (no concentration beside the values) | 0.02% of 390,000 active | AID 624415; in the data active means activity change below about -50%; inconclusive means about -30% to -50%; inactive means above about -30%;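 also: stimulus is agonist 54-4 at its EC80 concentration; % is scaled to controls: 0 for no effect and ±100 for the full control effect; compound concentration not given in the record; the text of the record puts the active cut at -80%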
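TRPML1-DL cells, Tet-induced overnight (~16 h, 37 °C) at 1,500 cells/well, were loaded with Ca8 no-wash dye plus quencher for 45-90 min at room temperature. Compounds were pinned during FDSS kinetic reading; agonist 54-4 at EC80 (4 uM final) then added.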
Six1-Eya2 inh: blocks human Six1 binding to Eya2; activity change, % (test concentration not listed); Q15475+O00167; 0.56% of 360,000 active; AlphaScreen GST-Six1/His-Eya2 binding, biochemical; stronger effect = lower value; control for the full effect not named in the record; AID 651725; in the data active = activity change below about -65%; inconclusive = about -30% to -65%; inactive = above about -30%; also: % is scaled to controls: 0 for no effect and ±100 for the full control effect; compound concentration not given in the record
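AlphaScreen with GST-Six1 and His-Eya2 (5X mix: 250 nM and 500 nM), glutathione donor and nickel acceptor beads; buffer 50 mM Tris pH 8.0, 300 mM NaCl, 1 mM TCEP; 1 h at 37 C in the dark.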
Active calls of the source: *; ? = inconclusive; . = not tested or not shown; & = joins results of further samples; [ ] = dose if it differs, or a comment. Random draw from the library; overall some 1% were active at least once.

SMILES	CtBP-E1A blk	PINK1 modulator	D2 agonist	TRPML1 ag	TRPML1 inh	Six1-Eya2 inh
Cc1c(Cl)cccc1NC(=O)CNC(=O)Cc1c[nH]c2ccccc12	4	2.4%	7.0	-0.7	-4	6
COc1cccc(N2CCN(S(=O)(=O)c3cc(Br)cc4c3N(C(=O)C3CC3)CC4)CC2)c1	.	1.6%	.	-0.9	-3	.
COC(=O)C1CCN(C(=O)c2cc(-c3ccco3)nc3ccccc23)CC1	.	1.5%	1.0	-0.9	3	-30
CCN1C(=O)/C(=C2/Sc3ccccc3N2CC)SC1=S	.	8.0%	0.9	.	.	-2
CCCCN(C)C(=O)c1nc2ccccn2c1CNCCCn1ncc2ccccc21	1	0.2%	-1.0	.	.	1
Cc1ccc2nc(-c3cccc(N)c3)[nH]c2c1	-3	-0.9%	-1.2	-1.0	-3	-7
Cc1ccc(N(CCC(=O)O)S(=O)(=O)c2ccccc2)cc1	-5	-2.4%	-0.1	1.0	8	2
O=C(Nc1ccc(S(=O)(=O)N2CCOCC2)cc1)c1cccnc1	0	1.2%	-1.2	0.2	-11	27
COc1cccc(CNC(=O)C2(C)Oc3ccccc3NC2=O)c1 (stereo not given)	1	-1.6%	-5.1	1.2	12	-1
Cc1cc(C)n(-c2ccc(F)cc2)c(=O)c1C(=O)O	-1	1.3%	-2.2	-0.9	-11	2
CCCCc1nc(SCc2ccc([N+](=O)[O-])cc2)n[nH]1	.	-0.1%	-4.4	0.1	-6	5
O=C(O)c1ccc(S(=O)(=O)Nc2ccc(O)c(Sc3nc4ccccc4s3)c2)cc1	-1	1.0%	-4.0	0.8	-6	-8
O=C(OCc1nnc(-c2ccc(Cl)cc2)o1)c1ccc(=O)n(Cc2ccccc2)n1	8	2.2%	-2.2	-0.1	10	-3
COc1ccc(Cl)cc1S(=O)(=O)N1CCC(c2ccncc2)CC1	.	-0.4%	.	0.1	8	.
Cn1c(N)c(C(=O)CSc2n[nH]c(N)n2)c(=O)n(C)c1=O	-17	0.9%	-2.4	-0.1	56	-23

The last 5 compounds of the part above come first, to join the parts.
SMILES	CtBP-E1A blk	PINK1 modulator	D2 agonist	TRPML1 ag	TRPML1 inh	Six1-Eya2 inh
CCCCc1nc(SCc2ccc([N+](=O)[O-])cc2)n[nH]1	.	-0.1%	-4.4	0.1	-6	5
O=C(O)c1ccc(S(=O)(=O)Nc2ccc(O)c(Sc3nc4ccccc4s3)c2)cc1	-1	1.0%	-4.0	0.8	-6	-8
O=C(OCc1nnc(-c2ccc(Cl)cc2)o1)c1ccc(=O)n(Cc2ccccc2)n1	8	2.2%	-2.2	-0.1	10	-3
COc1ccc(Cl)cc1S(=O)(=O)N1CCC(c2ccncc2)CC1	.	-0.4%	.	0.1	8	.
Cn1c(N)c(C(=O)CSc2n[nH]c(N)n2)c(=O)n(C)c1=O	-17	0.9%	-2.4	-0.1	56	-23
C[C@H]1NC(=O)[C@@]2(C)[C@H](c3ccccc3)[C@H]3COc4ccccc4[C@@H]3N2C1=O	7	-0.7%	-0.9	-0.3	-7	-1
COc1cccc(C(=O)c2cn(CC(=O)NCc3ccco3)c3nc(C)ccc3c2=O)c1	0	-0.8%	8.1	-0.2	36	-18
Cc1ccc(S(=O)(=O)c2cn(CC(=O)Nc3ccc4c(c3)OCO4)c3ccccc3c2=O)cc1C	.	0.4%	.	1.0	4	.
CC(=O)N1N=C(c2cccs2)CC1c1cccs1 (stereo not given)	3	2.6%	3.6	1.9	11	1
O=C(CN1CCN(C(=O)C2CCCO2)CC1)Nc1c(Cl)cccc1Cl (stereo not given)	4	-1.3%	-7.5	-0.4	6	-2
CCCC1=Nc2cc(C(=O)N3CCCC3)ccc2Sc2ccc(C)cc21	-16	0.1%	5.4	2.3	36	-6
CC(C)NCCOc1cccc(Br)c1	8	0.2%	-3.6	0.2	-1	4
CC(=O)NC1C(=O)N(CC(C)C)c2ccccc21 (stereo not given)	2	.	-2.7	-0.4	-6	0
CN(C)c1ccc(C(=O)OCC(=O)Nc2cccc(S(=O)(=O)N3CCCC3)c2)cc1	0	2.0%	0.6	1.6	-14	-19
CCOC(=O)CCc1c(C)nc(-n2[nH]c(C)c(CCO)c2=O)[nH]c1=O	.	0.5%	-1.4	-0.4	2	4
Nc1nnc(SCC(=O)NC2CCCc3ccccc32)s1 (stereo not given)	-6	1.7%	-1.0	.	.	3
Cc1cccc(C)c1NC(=S)NCCc1ccccn1	-3	3.1%	2.2	1.4	5	-1
COc1ccc(S(=O)(=O)NC(=O)C2(C)CCN2C(=O)C2CCCCC2)cc1OC (stereo not given)	9	1.8%	-0.8	0.1	.	4
CC1CCC(NC(=O)c2ccc(Br)o2)CC1 (stereo not given)	2	-0.4%	-4.4	-1.2	8	5
NS(=O)(=O)c1ccc(CCNc2cc(=O)n(Cc3ccc(F)cc3)c(=O)[nH]2)cc1	-1	4.5%[38.3 µM]	3.0	1.4	7	-2
COc1ccc(NC(=O)CSC2=Nc3ccccc3C3=NC(CCC(=O)NC4CCCCC4)C(=O)N23)cc1Cl (stereo not given)	.	-1.3%	.	0.6	2	.
Cc1ccc(-n2c(C)nc3c(cnn3-c3ccccc3Cl)c2=O)cc1C	3	6.1%	-0.8	-0.6	-8	1
CC(C)[C@H](NS(=O)(=O)c1ccc2c(c1)OCCO2)C(=O)OCC(=O)Nc1cccc(Cl)c1Cl	7	2.3%	0.4	5.6	-1	-1
O=C(c1ccc2c(c1)CCCC2)N1CCN(c2nc3c(F)cccc3s2)CC1	.	0.9%	.	0.9	-6	.
CCN1CCc2c(OCC(=O)N3CCC(C)CC3)cccc2C1=O	8	0.2%	1.9	-0.9	5	0
CCC(NC(=O)NCc1ccccc1)(C(F)(F)F)C(F)(F)F	5	?	-2.3	-0.6	0	3
CC1CCCCN1C(=O)C(=O)c1cn(CC(=O)N2CCCCCC2)c2ccccc12 (stereo not given)	4	24%	-4.2	-0.6	-14	-1
CCOC(=O)c1cccc(-n2c(C)cc(C=O)c2C)c1	-19	2.1%	-2.0	0.4	5	?
Clc1ccc2c(c1)C1=C(C(c3ccncc3)O2)C(c2ccc(Br)cc2)n2ncnc2N1 (stereo not given)	-16	-3.8%[38.3 µM]	1.0	2.2	0	-15
NCCCC[C@H]1CNC(=O)C(=O)N1CC1CCCCC1	.	0.1%	-2.7	0.3	-4	2
Cc1nn(-c2ccc(Cl)cn2)c2c1C(=O)CC(C)(C)C2Br (stereo not given)	-5	18%	7.2	1.1	12	-2
CCOC(=O)N1CCN(Cc2nc3c(c(=O)n(C)c(=O)n3C)n2CCC(C)C)CC1	8	1.1%	-2.8	-0.2	7	13
O=C1CCC[C@@H]2Cc3nc4ccccc4cc3[C@@H]3CCN1[C@H]23	2	1.1%	-3.3	-0.7&-0.6	-1	0
COc1ccc(NCc2ccccc2[N+](=O)[O-])cc1OC	-10	-0.7%	4.2	-1.1	-20	-27
Cc1oc(S(=O)(=O)N(C)C)cc1C(=O)Nc1ccc(F)cc1	2	-0.6%	-1.0	0.7	14	0
COC(=O)C1(S(=O)(=O)C2(C(=O)OC)CCCC2)CCCC1	6	-4.8%[38.3 µM]	-1.0	0.7	23	3
COc1ccc(CCNC(=O)C2CC(c3ccccc3F)=NO2)cc1 (stereo not given)	5	-0.9%	1.7	-0.4	-5	5
Cc1cc(S(=O)(=O)Nc2cccnc2)c(C)s1	7	0.9%	-1.1	-0.5	5	8
Cc1ccc(C(=O)N/C(=C\c2cn(S(=O)(=O)N(C)C)c3ccccc23)C(=O)NCCCN2CCOCC2)cc1	-11	1.1%	-2.3	0.1	-16	0
C=CCN(CC=C)C(=S)NC(=O)/C=C/c1ccccc1	0	1.1%	0.8	0.1	-4	-2
COc1cc(OC)cc(C(=O)Nc2sc3c(c2C(N)=O)CCC3)c1	-13	0.9%	-6.7	-0.3	-14	-4
CCC(=O)Nc1sc2c(c1C(=O)N(C)C)CCCCC2	-3	-1.5%	-1.9	-0.6	-7	7
COc1ccc(C(C#N)c2ccc(=O)[nH]n2)cc1 (stereo not given)	-2	-0.9%	1.0	1.5	0	-1
CN=C1c2c(-c3ccccc3)c3cc(OC)ccc3n2CCN1C	-2	7.8%	-5.1	-0.1	3	1
CCn1c(CSc2nnc(-c3ccncc3)n2CCOC)nc2cc(C(=O)O)ccc21	0	-0.9%	-0.7	-0.5	-4	-3
O=C(Nc1c(Br)cc2c(c1Br)Cc1ccccc1-2)C(F)(F)F	21	?	-0.9	0.0	8	-6
COc1ccc(NC(=O)Nc2cccc(C)n2)c(OC)c1	-8	1.4%&1.3%	2.6	3.8&-0.2	0&-21	-8
COc1ccccc1C(CNC(=O)c1cc(S(=O)(=O)N2CCOCC2)ccc1C)N1CCCC1 (stereo not given)	1	0.1%	-1.6	-0.9	-2	3
Nc1nc(=S)c2[nH]cnc2[nH]1	-5	0.0%	-5.4	-0.7	-3	-5
O=C(NCC(=O)N(CC1CCCO1)C(C(=O)NC1CCCCC1)c1cccnc1)c1cccs1 (stereo not given)	.	2.0%	-5.5	0.1	9	5
CCOc1ncccc1C(=O)OCC(=O)Nc1cc(S(=O)(=O)N2CCOCC2)ccc1C	14	0.5%	-3.2	0.0	-4	0
O=C(O)CC(C(=O)O)C(c1ccccc1)c1ccccc1 (stereo not given)	8	-1.0%	-1.3	-0.5	-22	1
CC(C(=O)Nc1ccc(C(N)=O)cc1)N1C(=O)c2ccccc2S1(=O)=O (stereo not given)	-12	1.0%	-1.9	0.6	3	4
O=C(Nc1ccc(-c2cnco2)cc1)c1ccc(F)cc1F	1	0.8%	0.4	0.6	-8	227
COc1ccc(N2CCN(C(=O)COC(=O)c3ccc(-n4nc(C)cc4C)cc3)CC2)cc1	-24	2.5%	4.1	0.6	-10	-9
COc1cccc(CNCC(=O)N2C(C)CCCC2C)c1 (stereo not given)	9	?	0.0	-0.4	-2	-1
CN1CCN(CC(O)COCCOc2ccc(Br)cc2)CC1 (stereo not given)	3	0.4%	-1.4	0.6	0	-3

Full records, looked up by structure. Order of screens: CtBP-E1A blk, PINK1 modulator, D2 agonist, TRPML1 ag, TRPML1 inh, Six1-Eya2 inh
Shown for O=C(O)CC(C(=O)O)C(c1ccccc1)c1ccccc1 (stereo not given) : 8, -1.0%, -1.3, -0.5, -22, 1
Shown for CC(C(=O)Nc1ccc(C(N)=O)cc1)N1C(=O)c2ccccc2S1(=O)=O (stereo not given) : -12, 1.0%, -1.9, 0.6, 3, 4
